VACV Venus inh: qHTS for Stage-Specific Inhibitors of Vaccinia Orthopoxvirus: Venus Reporter Primary qHTS; Vaccinia virus Venus reporter expression, fluorescence; Potency, µM (titrated, usually from 36.5 µM), without a hit: top-dose activity change, negative = inhibition, usual class: inhibitors; 330,000 tested, 0.46% active; active means well fitted inhibition curve with a large enough effect; inconclusive means small, poorly fitted or top-dose-only effect; inactive means no such curve, though single readings can be large or run the other way; tested in A549 cells; also: nearly all actives have a fitted effect of over 30% in size; inactives centre near -10
Vaccinia mCherry: qHTS for Stage-Specific Inhibitors of Vaccinia Orthopoxvirus: mCherry Reporter Primary qHTS; AID 720579, 2013; Potency, µM (series often up to 36.5 µM), for the others: top-dose activity change, negative = inhibition, most hits filed as inhibitors; Vaccinia virus mCherry reporter infection, fluorescence; about a quarter of the inactives have no number; 310,000 tested, 0.63% active; active = well fitted inhibition curve with a large enough effect; inconclusive = small, poorly fitted or top-dose-only effect; inactive = no such curve, though single readings can be large or run the other way; tested in A549 cells; also: nearly all actives have a fitted effect of over 35% in size; inactives centre near -10
* hit, by the source's call; i = inactive; ? = inconclusive; . = no result given; & = joins results of further samples; [ ] = dose if it differs, or a comment. % is scaled to controls: 0 for no effect and ±100 for the full control effect; potency is read from the fitted curve at half-maximal effect.

Below each compound – VACV Venus inh	Vaccinia mCherry
- CC1CCCN(C2=NC(=O)/C(=C/c3cn(-c4ccccc4)nc3-c3cccc(S(=O)(=O)N(C)C)c3)S2)C1 (stereo not given)
 : -13%	.
- O=C(O)CCCCCCCCc1cn(CC2CCCCC2)nn1
 : -11%&-15%	i
- C#CCN(C[C@@H]1[C@@H](OC(=O)NCc2ccccc2)[C@@H](OC(=O)NCc2ccccc2)Cn2c(=O)n(CCCCCC)c(=O)n21)S(=O)(=O)c1ccc(C)cc1
 : -19%	-2%
- Cc1ccc(NC(=O)CCNC(=O)c2ccc(Cl)cc2)nc1
 : -17%	i
- O=c1[nH]c(Cl)nc2c1ncn2C1OC(CO)C(O)C1O (stereo not given)
 : 4%	-2%
- O=C(CSCc1nc2ccccc2[nH]1)N1CCN(c2ccc(F)cc2)CC1
 : ?	-22%
- CN(C)C(=S)Nn1c(-c2ccccc2)nc2ccccc2c1=O
 : -1%	i
- C=CCn1c(-c2csc(-c3ccc(OC)c(OC)c3)n2)n[nH]c1=S
 : -21%	-9%
- COc1ccc(N2C(N)=NC(N)=NC2(C)C)cc1
 : 11µM*	?
- Cc1cc(C)cc(OCC(=O)N2CCC(c3nc4ccccc4o3)CC2)c1
 : -10%	2%
- Cc1[nH]nc2c1C(CC(C)C)C(C#N)=C(N)O2 (stereo not given)
 : -7%	-27%
- O=C(O)c1cccc(-n2cnc3cccnc32)c1
 : -4%	-3%
- CC1CCCN(c2nc(-c3cccnc3)nc3scc(-c4ccccc4)c23)C1 (stereo not given)
 : -14%	-9%
- O=C(Cn1cncn1)N/N=C/c1ccc(Cl)cc1
 : -16%	-5%
- C=CCOc1ccc(C(c2c(C(=O)O)[nH]c3ccccc23)c2c(C(=O)O)[nH]c3ccccc23)cc1
 : 2%	0%
- Cc1ccc(CNC(=O)c2ccccc2NS(C)(=O)=O)cc1
 : -7%	.
- COc1cc(C(=O)NCC(=O)N/N=C/c2cccnc2)cc(OC)c1OC
 : 1%	-23%
- CC(C)(C)OC(=O)N1CCC(c2c(C(=O)NC3CCCCC3)cnn2-c2cccc(F)c2)CC1
 : -8%	-10%
- COc1ccc(-c2csc(Nc3ccccc3)n2)cc1
 : -5%	-16%
- Cc1c(S(=O)(=O)N2CCCC2)c(=O)n(C)c(=O)n1C
 : -14%	i
- Cc1ccc(S(=O)(=O)N2CCN(C(=O)CSc3nncs3)CC2)cc1
 : -20%	i
- CCOC(=O)C1CCCN1C(=O)C1(NC(C)=O)CCCC1 (stereo not given)
 : -1%	i
- Cc1cccc(C)c1NC(=O)N1CCC(C(=O)c2ccc(F)cc2)CC1
 : 2%	-18%
- CCOC(=O)c1c(-c2ccc(OC)cc2)csc1NC(=O)CCN1C(=O)c2ccccc2C1=O
 : -5%	-10%
- C(=C\c1ccnc2ccccc12)/c1cccnc1
 : -25%	-4%
- CCC(CC)c1nnc(NC(=O)CN2C(=O)C3C4C=CC(C4)C3C2=O)s1 (stereo not given)
 : -27%	.
- O=C(c1cc2ccccc2oc1=O)N1CCN(c2ncccn2)CC1
 : -4%	-13%
- CCc1ccc(CNC(=O)c2cc3cc4ccc(OC)cc4nc3o2)cc1
 : -4%	-7%
- CCOc1ccc(OCC(=O)N2CCC3(CC2)CC(=O)c2ccccc2O3)cc1
 : -4%	-10%
- CN(Cc1cccs1)C(=O)COc1cccc2c1OC(C)(C)C2
 : -21%	?
- Cc1ccccc1NC(=O)c1c(NC(=O)Cc2ccccc2)sc2c1CCC2
 : -5%	1%
- CCOC(=O)c1c(C)oc2nc(C)nc(NCCc3ccc(C)cc3)c12
 : -15%	i
- NNC(=O)CNC(=O)c1cccc(Br)c1
 : 1%	6%
- O=c1c2ccccc2nc(N/N=C/c2c(O)ccc3ccccc23)n1O
 : ?	.
- CC(C)Cc1nnc(NC(=O)CCC(=O)N2CCN(C3CCCC3)CC2)s1
 : -4%	-18%
- COCCCn1c(-c2ccco2)nc2ccccc2c1=O
 : -2%	-9%
- CC(/C=C/C=C/c1ccccc1)=N\NC(=O)c1cccnc1
 : -6%	-10%
- COc1ccccc1OCCNC(=O)c1ccc2c(c1)CCC2
 : -4%	-13%
- [O-][n+]1onc2c3ccnnc3ccc21
 : -24%	.
- O=C(CC1OC(=O)c2ccccc21)Nc1cc(S(=O)(=O)N2CCOCC2)ccc1OCC(F)(F)F (stereo not given)
 : -16%	-14%
- Cc1cccc(C)c1N1C(=O)c2ccccc2NC(=O)C1C(=O)NCCOc1ccccc1 (stereo not given)
 : -4%	i
- Cc1ccc2c(c1)CN(CCNC(=O)C(C)Oc1ccccc1)CC(C)O2 (stereo not given)
 : -3%	-13%
- N#Cc1ccc(C(=O)Nc2cc(-c3ccc(F)cc3)nn2-c2ccccc2)cc1
 : -27%	i
- CC1(OC(=O)C2CCCC2)C(=O)C=C2C=C(c3ccsc3)N(CCc3c[nH]c4ccccc34)C=C2C1=O (stereo not given)
 : -13%	?
- CC(=O)C12OC(C)(C)OC1CC1C3CCC4=CC(=O)C=CC4(C)C3(F)C(O)CC12C (stereo not given)
 : -17%	-27%
- COC(=O)c1ccc(CSc2nnc3c(Cl)cc(Cl)cn23)o1
 : -3%	-15%
- O=C(COc1ccc([N+](=O)[O-])cc1)N/N=C/c1ccccn1
 : -4%	-5%
- CCOC(=O)N1CCN(C(=O)c2cc(-c3ccncc3)nc3ccccc23)CC1
 : -28%	?
- COc1ccc(-n2nnnc2C2CCN(S(=O)(=O)c3ccc(F)cc3Cl)CC2)cc1
 : -19%	-19%
- NC(=O)C1(NC(=O)[C@@H]2CC3(CC(c4cccc(NC(=O)[C@@H]5CCC(=O)N5)c4)=NO3)CN2C(=O)c2ccccc2)CC1 (stereo not given in full)
 : -8%	i
- CCCC(C)C(=O)Nc1ncc(S(=O)(=O)c2ccc([N+](=O)[O-])cc2)s1 (stereo not given)
 : ?	2.5µM*
- CCCNS(=O)(=O)c1ccc(CCC(=O)NCCc2ccc(OC)c(OC)c2)cc1
 : -12%	i
- CCO[C@@H]1OC(C(=O)N2CCN(Cc3ccccc3)CC2)=C[C@H](c2ccccc2)[C@H]1CCCO
 : -8%	-7%
- CCN(CC)C(=O)Oc1nnc(SC(C)C)n1-c1ccc(Cl)cc1
 : -17%	i
- CC(=O)c1ccc(NC(=O)c2noc3c2CCC3)cc1
 : -3%	-10%
- COC(=O)c1cc(NC(=O)c2cnc(SC)nc2-c2ccccc2)cc(C(=O)OC)c1
 : -2%	0%
- Cn1nc(C(C)(C)C)cc1C(=O)N1CCCCC1c1cc(C(=O)Nc2ccc(F)c(Cl)c2)no1 (stereo not given)
 : ?	-18%
- Cc1ncc([N+](=O)[O-])n1S(=O)(=O)c1ccc2c(c1)OCCO2
 : -11%	-8%
- CCCCn1c2ccc(F)cc2c2nnc(SCCN3CCCCC3)nc21
 : ?	-7%
- CCCN1CCc2c(sc3nc(SCC)n(-c4ccccc4)c(=O)c23)C1
 : -3%	i

Exported as labelled records: part of the list above
SMILES: NNC(=O)CNC(=O)c1cccc(Br)c1
  VACV Venus inh: 1%	Vaccinia mCherry: 6%
SMILES: O=c1c2ccccc2nc(N/N=C/c2c(O)ccc3ccccc23)n1O
  VACV Venus inh: ?	Vaccinia mCherry: .

The main list resumes with the two entries that preceded the break.
Below each compound – VACV Venus inh	Vaccinia mCherry
- CCCCn1c2ccc(F)cc2c2nnc(SCCN3CCCCC3)nc21
 : ?	-7%
- CCCN1CCc2c(sc3nc(SCC)n(-c4ccccc4)c(=O)c23)C1
 : -3%	i
- O=C(NCC1CCCO1)c1ccc2c(=O)n(-c3ccc(F)cc3)c(=S)[nH]c2c1 (stereo not given)
 : -6%	-4%
- CCOC(=O)Nc1cccc(NC(=O)c2ccccc2F)c1
 : -8%	-9%
- C[C@H](CO)N1C[C@H](C)[C@@H](CN(C)C(=O)Nc2ccnc(N3CCOCC3)c2)OCc2cnnn2CCCC1=O
 : -15%	-21%
- O=C(NNc1c(F)c(F)cc(F)c1F)c1ccc(Cl)nc1
 : -9%	?
- O=C(c1ccc(F)cc1F)N1CCN(S(=O)(=O)c2ccc3c(c2)OCCO3)CC1
 : -7%	-21%
- CC(C)(C)NC(=O)C(c1ccc(-c2ccccc2)cc1)N(C[C@H]1CC[C@@H]([C@@H]2CC[C@H](CO)O2)O1)C(=O)c1ccc(-c2ccccc2)cc1 (stereo not given in full)
 : ?	28µM*
- CN(C)c1ccc(CC2C(=O)Nc3ccccc32)cc1 (stereo not given)
 : -6%[7.34 µM]	-14%[7.34 µM]
- Cc1cccc(OCCSc2nc3ccc(NC(=O)COc4ccccc4C)cc3s2)c1
 : -9%	-20%
- C[C@@H]1CN([C@@H](C)CO)C(=O)c2cccc(NS(=O)(=O)c3cccs3)c2O[C@H]1CN(C)Cc1ccc(C(F)(F)F)cc1
 : -25%	-16%
- S=C(Nc1ccccc1Cl)N1CCOCC1
 : -13%	-8%
- CC(=O)Nc1ccc(S(=O)(=O)Nc2nc3ccccc3nc2-n2ccc(=NC(=O)c3ccc(F)cc3)cc2)cc1
 : -22%	1%
- Cc1ccc(NC(=O)CSc2nnc3n2CCCCC3)cc1
 : -18%	i
- CCOC(=O)[C@@H]1[C@H]2COc3ccc(Br)cc3[C@@H]2N2C(=O)N(c3ccccc3)C(=O)[C@]12C
 : -23%	i
- COc1ccc(N2CCN(C(=O)CNC(=O)c3cccc(Br)c3)CC2)cc1
 : -10%	-20%
- CCN1CCN(C(CC(C)C)c2nnnn2CS(=O)(=O)c2ccc(C)cc2)CC1 (stereo not given)
 : -3%	-2%
- Cc1cccc(C(=O)OCC(=O)NCC(C)C)c1O
 : 3%	-2%
- Cc1ccc(-n2cc(CN3CCCN(C=O)CC3)c(-c3ccc(F)cc3)n2)cc1
 : -13%	?
- Cc1ccc(Cl)cc1-n1c(CCC(=O)O)ccc1-c1cccs1
 : 6%	7%
- COc1ccccc1NC(=S)N(c1ccccc1)C(C)C
 : -7%	i
- Cc1ccc(OCCSc2nc(C)c(Cc3ccccc3)c(=O)[nH]2)cc1
 : -6%	-5%
- NC(=S)c1csc(CCNC(=O)c2ccccc2)n1
 : -4%	i
- COc1ccc([C@@H](C)NC(=O)CCc2nnc(-c3cc(C)on3)o2)cc1
 : -22%	-13%
- O=C(Nc1cccc(NC(=O)c2cccc(F)c2)c1)c1ccccc1
 : -15%	4%
- O=C(C1=C[C@@H](c2ccccc2)C[C@@H](OCc2ccc(CO)cc2)O1)N1CCCCCCC1
 : -12%	?
- COc1ccc(CCC(=O)N2CCCC(Nc3ccccc3)C2)cc1OC (stereo not given)
 : -3%	-24%
- CN1CCN(Cc2nc3c(c(=O)[nH]c(=O)n3C)n2Cc2c(F)cccc2Cl)CC1
 : -21%	i
- Cc1ccc(CS(=O)(=O)CCC(=O)N2CCC3(CC2)OCCO3)cc1
 : -2%	-13%
- O=C(N/N=C/c1ccccc1O)c1cc[n+]([O-])cc1
 : -21%	-16%
- CC1=C(C(=O)Nc2ccccc2)C(c2ccc(C)o2)n2c(s/c(=C/c3ccccc3)c2=O)=N1 (stereo not given)
 : -3%	.
- COc1ccccc1CNC(=O)COC(=O)c1cc(-c2ccco2)nc2ccccc12
 : 0%	i
- CCCC(=O)Nc1nc2ccc(S(N)(=O)=O)cc2s1
 : -13%	-10%
- CCc1cc(=O)[nH]c(SCCC(F)=C(F)F)n1
 : -10%	-10%
- CCSc1ccc([C@@H]2[C@@H]3C(=O)N(CC)C(=O)[C@@H]3[C@]3(C(=O)OC)CCCCN23)cc1OC
 : -15%	i
- CN(NC(=O)C(=O)NCc1ccco1)C(=O)Nc1ccc(Cl)cc1
 : 3%	10%
- NCC1O[C@@H](OC2C(N)CC(N)C(O)C2O[C@@H]2OC(CO)C(O)C2O)C(N)C(O)C1O (stereo not given in full)
 : -1%	-6%
- CC1(C(=O)NS(=O)(=O)c2ccc3ccccc3c2)CCN1C(=O)C1(c2ccc(Cl)cc2)CCC1 (stereo not given)
 : -18%	-18%
- O=C(Nc1ccccc1)/C(=C\c1ccco1)NC(=O)c1ccco1
 : 11%	-2%
- COc1ccccc1N1CCN(C(=O)CN(C2CCCCC2)S(C)(=O)=O)CC1
 : -11%	-11%
- CC(=O)Nc1cccc(-c2ccnc3c2CC(C)(C(=O)Nc2ccc(C(C)C)cc2)O3)c1 (stereo not given)
 : ?	-26%
- O=C(COc1ccc(Br)cc1CO)N1CCCc2ccccc21
 : -10%	i

Laid out differently: two of the compounds above
Cc1ccc(CNC(=O)c2ccccc2NS(C)(=O)=O)cc1
  VACV Venus inh = -7% | Vaccinia mCherry = .
CCOC(=O)Nc1cccc(NC(=O)c2ccccc2F)c1
  VACV Venus inh = -8% | Vaccinia mCherry = -9%

Screening data (PubChem BioAssay)
